eIF4H inh = inhibitors of RNA binding by human eIF4H. inhibition, % at 35 µM. Q15056. eIF4H fluorescence polarization binding assay. AID 2012. 290,000 tested, 0.94% active;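 active means 50% or more with normal probe brightness, or confirmed in later tests; inconclusive means above 50% with abnormal brightness, or retests that disagree; inactive means below 50% or failed in later tests; about a fifth of its hits are not listed in these tables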;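 further: calls also rest on retests at 20 µM and on dose response follow-up; 0% = protein and probe with vehicle and 100% = probe without protein; strong numbers were not always called active; many hits fall short of the cut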
Rce1 inhib = inhibitors of yeast Ras-converting enzyme | 290,000 tested, 0.27% active | Q03530 | calls only | yeast membranes, quenched prenylated peptide cleavage fluorescence;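 active means fall in fluorescence gain of 50% or more versus controls, with final raw signal at or below 3038400; inconclusive means same 50% fall but final raw signal above 3038400; inactive means fall in fluorescence gain under 50%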;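 further: plate controls were neutral control wells for no effect and wells lacking membranes for full effect; tested at 10 µM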
Target sequence (Q03530 whole entry, looked up): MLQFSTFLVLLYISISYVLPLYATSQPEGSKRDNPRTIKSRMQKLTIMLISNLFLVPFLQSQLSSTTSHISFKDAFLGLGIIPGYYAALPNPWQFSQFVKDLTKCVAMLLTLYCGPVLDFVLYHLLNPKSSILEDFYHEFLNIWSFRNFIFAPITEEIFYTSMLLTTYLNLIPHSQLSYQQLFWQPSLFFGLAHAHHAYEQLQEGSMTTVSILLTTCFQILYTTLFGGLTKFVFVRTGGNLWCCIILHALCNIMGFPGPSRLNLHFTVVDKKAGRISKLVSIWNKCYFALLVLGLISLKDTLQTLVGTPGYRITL
HIV Env fusion = blocks HIV Env-driven cell-cell fusion. HeLa-JRFL Env/CEM21 cell fusion, luciferase. inhibition, % at 12.3 µM. 360,000 tested, 1.1% active;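 active means mean replicate inhibition score of at least 50 and every replicate individually at or above 50; inconclusive means only one of the two criteria met; inactive means mean below 50 and not all replicates reaching 50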;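 further: 0% = plate neutral controls and 100% = maraviroc near 300 nM; one replicate is shown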
PABP polyA inh = PABP-poly(A) binding inhibition; inhibition, % at 35 µM; AID 2014; 290,000 tested, 1% active; PABP-poly(A) RNA binding, fluorescence polarization; P11940;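 active means 50% or more with normal probe brightness, or confirmed in later tests; inconclusive means above 50% with abnormal brightness, or retests that disagree; inactive means below 50% or failed in later tests; about a fifth of its hits are not listed in these tables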;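 further: calls also rest on retests at 20 µM and on dose response follow-up; controls were probe without protein and protein plus probe with vehicle; some compounds called inactive have numbers as strong as hits; many hits fall short of the cut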
Yeast UUG start = yeast start codon fidelity modulation. 350,000 tested, 0.13% active. activity score, % at 18.7 µM. S. cerevisiae UUG-firefly luciferase reporter, luminescence/redox ratio;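 active means replicate mean at a twofold rise or more, about +100% in these data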;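 further: firefly luciferase made from a UUG start codon reports start codon fidelity; reporter light over untreated wells divided by growth signal over untreated wells; some hits fall short of that in this replicate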
MT1-MMP act inh = inhibitors of human MT1-MMP activation. 360,000 tested, 0.061% active. AID 651647. HT1080 RFP-PRO-GFP cells, GFP/RFP ratio fluorescence, overnight; percent of plate control window, DMSO zero. GFP/RFP ratio change, % at 20 µM;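 active means GFP/RFP ratio change of at least 30% with cell ATP level not reduced by more than half and red fluorescence within 50% of control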; further: strong numbers were not always called active
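Test system: HT1080 RFP-PRO-GFP cells; Benchmarks: DMSO and RFP-L50D-GFP cell wells; Timing: cells overnight before dosing, compound overnight, 37 °C, 5% CO2; Compound: one 20 µM compound dose with 1% DMSO; Read-out: GFP/RFP fluorescence ratio.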
CSC inhib = cancer stem cell inhibition; cancer stem cell-like cells viability, luminescence; inhibition, % at 7.5 µM; 300,000 tested, 1.1% active;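 active means mean at 75% or more and at least half the replicates too; inconclusive means mean and replicates disagree; tested in HMLE shEcad cells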;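 further: 0% = median of negative and 100% = median of positive control wells; the first replicate is given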
eIF4H inh retest = further read-out of eIF4H inh, marked with its call; inhibition, %; compound at 20 µM; confirmation average;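 mean of two retest wells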
PABP polyA inh retest = recorded beside PABP polyA inh, whose call it bears; inhibition, %; compound at 20 µM; confirmation repeats;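 mean of two retest wells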
MT1-MMP act inh RFP = recorded beside MT1-MMP act inh, whose call it bears; RFP signal change, %; measured here: RFP expression control read;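 0 = vehicle wells; hits needed this value within 50% of zero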
* = called active by the depositor; i = inactive; ? = inconclusive; nt = no result given.

SMILES	eIF4H inh	Rce1 inhib	HIV Env fusion	PABP polyA inh	Yeast UUG start	MT1-MMP act inh	MT1-MMP act inh RFP	CSC inhib	others
COc1ccccc1-c1nc2n(n1)C(c1ccccc1Cl)C(C(N)=O)=C(C)N2 (centres undefined)	-4.9	i	8.3	-8.0	-15.0	-3.6	-1.9	-5.8
CCCCC(=O)NC(N1CCCCC1)C(Cl)(Cl)Cl (centres undefined)	-3.3	i	nt	8.1	-9.6	0.6	4.6	10.0
Cc1nc(NC(=O)COC(=O)C2CC2C)c(Cl)cc1Cl (centres undefined)	nt	nt	-2.6	nt	6.7	-0.1	-0.3	-3.1
COc1cccc(C(=O)COC(=O)C2CC(=O)N(c3ccc(Oc4ccccc4OC)cc3)C2)c1 (centres undefined)	-2.5	i	2.9	-1.8	-0.6	-1.0	4.2	-5.5
CN(CC(=O)Nc1cccc2ccccc12)C(=O)c1ccc(F)cc1F	nt	nt	-3.0	nt	-0.2	-0.7	0.6	-12.5
O=C(CN1CCc2cc3c(cc2C1)OCCCO3)Nc1ccc(F)cc1	-4.6	i	1.3	-4.7	-12.3	4.5	-3.4	-7.4
Cn1ccnc1Sc1nnnn1-c1ccccc1	0.8	i	-95.6	-6.4	-6.8	10.8	3.7	5.3
CCCn1c(SCC(=O)NNC(=O)c2ccc(C)cc2)nnc1C(C)C	-11.0	i	5.6	11.1	-8.1	-0.1	2.5	nt
CCOC(=O)N1CCC(NC(=S)Nc2ccc3nc(N4CCN(CC)CC4)cc(C)c3c2)CC1	-4.6	i	-0.9	6.5	nt	-3.1	-1.2	11.2
CC(=O)c1ccccc1NC(=O)CCNC(=O)c1ccco1	-9.8	i	-3.4	5.2	-10.5	0.0	4.7	-9.1
CC(=O)N1CCN(Cc2nc(C(c3ccccc3)c3ccccc3)no2)CC1	-7.4	i	12.4	-1.8	nt	0.0	1.9	-15.7
S=c1[nH]c2ccccc2o1	-2.8	i	3.4	-8.3	nt	-5.6	2.6	nt
Cc1ccc(OCCCC(=O)Nc2ccc(Br)cc2)cc1	-3.9	i	-96.0	-10.7	-10.0	-1.8	-4.1	-13.8
Cc1ccc(CCNC(=O)CN2CCN(Cc3ccccc3F)C2=O)cc1	5.8	i	nt	9.5	-12.1	2.4	0.2	5.2
Cc1nc(-c2cccc(NC(=O)c3ccc(Cl)c(S(=O)(=O)N4CCCC4)c3)c2)cs1	nt	nt	1.5	nt	9.1	3.1	-9.0	nt
CN1CCn2cnc(C(=O)NCc3ccc(CNC(=O)OC(C)(C)C)cc3)c2C1=O	nt	nt	-0.5	nt	-19.6	1.2	3.5	nt
CN(C)c1ccc(C(C(=O)NCC2CCCO2)N(C(=O)c2snc(C(N)=O)c2N)c2ccccc2)cc1 (centres undefined)	-5.1	i	9.8	3.1	-2.6	-3.8	-1.6	-7.9
CCOc1cc(C(=O)OCC(=O)Nc2ccc(F)cc2Cl)ccc1OCC(=O)N1CCOCC1	nt	nt	-12.6	nt	-14.5	-4.7	-3.0	nt
CC(C)C(c1nnnn1C1CCCCC1)N1CCCc2ccccc21 (centres undefined)	-0.3	i	-39.1	1.5	-5.8	-2.4	-5.2	-11.6
COC(=O)c1c(-c2ccc(OC)c(OC)c2)csc1N	1.5	i	-119.4	-1.5	18.9	5.4	3.3	22.0
Cc1c(C)n(CCC#N)c2ccc(Cl)cc12	0.8	i	-54.5	32.0	nt	2.1	2.4	-7.2
Cc1cccc(N(CC(=O)NC(C)(C)C)C(=O)CCC(=O)Nc2nccs2)c1	-8.9	i	11.5	-4.4	12.0	-0.4	0.1	-36.2
CCN1C(=O)N(C)C2(c3ccccc3)N(C)C(=O)N(C)C12c1ccccc1 (centres undefined)	3.8	i	nt	-5.3	8.0	2.4	4.3	-15.3
Cc1cc(=O)n2nc(N3CCC(C(=O)NCC(C)c4ccccc4)CC3)sc2n1 (centres undefined)	-3.8	i	10.5	-1.5	-6.5	2.0	4.2	-6.8
CCOC(=O)C1CCN(C(=O)c2sc3ncnc(N4CCC(C)CC4)c3c2C)CC1	-5.5	i	-13.4	4.9	nt	3.0	0.8	-18.7
Cn1cnc2ccc([N+](=O)[O-])cc2c1=O	7.1	i	5.1	34.3	-3.9	-0.9	2.4	0.5
C/C(=N/NS(=O)(=O)c1ccc(CC(C)C)cc1)c1ccncc1	-6.2	i	64.8*	55.4	-5.9	7.3	-22.8	-6.4	eIF4H inh retest=-8.4;PABP polyA inh retest=8.5
COc1ccc(CC(=O)NNC(=O)c2ccoc2C)cc1OC	-1.8	i	nt	4.0	-4.2	-0.7	4.3	-7.5
O=C(NCCC1=CCCCC1)c1coc(=O)c(Br)c1	0.7	i	-408.0	3.0	0.6	6.7	-2.4	?
CCNc1nc(Cl)nc(N(NC(C)=O)C(C)CC)n1 (centres undefined)	-4.4	i	nt	0.3	-8.5	-2.1	-0.5	-3.6
OC(CC1CC12c1ccccc1-c1ncccc12)(c1ccccc1)c1ccccc1 (centres undefined)	1.6	i	nt	-6.3	4.5	-35.8	-18.6	25.6
c1ccc(N2CCN(c3nc(-c4cccs4)nc4ccccc34)CC2)cc1	61.0	i	-59.0	3.4	nt	-2.6	-3.5	20.7	eIF4H inh retest=-4.0;PABP polyA inh retest=18.2
COc1ccc(CNC(=O)CN2C(=O)NC3(CCCCCCC3)C2=O)cc1	nt	nt	16.2	nt	-13.0	0.3	1.9	1.6
CCOC(=O)CSc1cc(C)nc2ccc(OC)cc12	-6.2	i	0.7	-5.8	nt	-0.6	0.2	1.7
CN1Cc2cccc3c2C(Cc2ccccc2S3)C1 (centres undefined)	-8.1	i	-15.2	-2.6	nt	2.2	1.9	-10.5
Cc1c(O)ccc(C(=O)CN2CCN(Cc3ccc4c(c3)OCO4)CC2)c1O	11.0	i	10.7	14.5	-6.6	-2.7	-1.2	4.4

Entries above that contain an aryl thioether with sulfur outside any ring (3):
SMILES	eIF4H inh	Rce1 inhib	HIV Env fusion	PABP polyA inh	Yeast UUG start	MT1-MMP act inh	MT1-MMP act inh RFP	CSC inhib	others
Cn1ccnc1Sc1nnnn1-c1ccccc1	0.8	i	-95.6	-6.4	-6.8	10.8	3.7	5.3
CCCn1c(SCC(=O)NNC(=O)c2ccc(C)cc2)nnc1C(C)C	-11.0	i	5.6	11.1	-8.1	-0.1	2.5	nt
CCOC(=O)CSc1cc(C)nc2ccc(OC)cc12	-6.2	i	0.7	-5.8	nt	-0.6	0.2	1.7

More compounds.
SMILES	eIF4H inh	Rce1 inhib	HIV Env fusion	PABP polyA inh	Yeast UUG start	MT1-MMP act inh	MT1-MMP act inh RFP	CSC inhib	others
CC1CCCN(c2ccc(C(=O)OCC(=O)N3c4ccccc4Sc4ccccc43)cc2[N+](=O)[O-])C1 (centres undefined)	0.1	i	nt	-0.2	nt	-1.4	-1.3	56.0
CCCCCCOc1ccc(-c2ccc(C#N)cn2)cc1	-11.0	i	-53.3	16.7	-19.5	4.5	0.7	6.8
Cc1cccc(C(=O)Nc2ccc(NC(=O)Cc3ccc(Cl)cc3)cc2)c1	-1.3	i	nt	-0.3	nt	6.3	6.5	-6.9
CCC(CC)COC(=O)C1=C(C)NC(=O)NC1c1cc(OC)ccc1OC (centres undefined)	-4.9	i	10.2	-5.2	-11.1	-3.9	-4.3	10.0
COc1ccc(-n2c(SC3CCOC3=O)nc3ccccc3c2=O)cc1Cl (centres undefined)	3.1	i	24.4	8.3	0.5	3.8	-2.2	nt
Cc1nc2ccc(C(=O)NCc3ccc4c(c3)OCO4)cc2s1	0.3	i	7.6	-11.7	nt	1.6	-0.3	6.7
CC1(C)CC(=O)C=C(NNC(=O)c2ccccc2)C1	-13.3	i	-13.4	-8.2	-2.7	4.6	6.3	-10.7
CC(=O)Nc1ccc2c(c1)nc1n2CCOC1	-7.2	i	-27.8	-6.5	-9.8	-1.4	-1.0	-3.6
O=C(NCC(=O)N1CCN(C(=O)c2ccco2)CC1)c1ccc(Br)cc1	-12.2	i	-226.1	2.9	-11.3	0.5	-1.0	-13.2
O=C(NCc1cccnc1)C1CCN(S(=O)(=O)N2CCC3(CC2)OCCO3)CC1	3.1	i	nt	-15.6	-22.0	3.2	4.1	-19.2
CCOc1ccc(CN(C)C(=O)CNC(=O)c2ccc(Br)o2)cc1OC	-16.7	i	-5.0	1.5	-6.9	0.6	-0.8	-2.9
O=C(NCc1ccccc1)C12CC3CC(CC(Cl)(C3)C1)C2	-1.9	i	15.4	4.3	-2.4	-1.1	-0.4	5.4
O=C(CCC1CCCC1)NNC(=O)c1ccccc1O	nt	i	6.9	nt	-15.4	0.3	0.1	-13.8
COc1cc([N+](=O)[O-])ccc1NC(=O)CSc1nncn1-c1cccnc1	10.9	i	-11.2	-1.4	nt	-3.4	-5.4	-2.5
CCN(CC)C(=O)C1CCCN(c2ccc([N+](=O)[O-])cc2/C=N/NC(=O)c2cccc(O)c2)C1 (centres undefined)	-1.3	i	nt	-15.9	13.4	4.0	-4.2	nt
CC(C)c1c(C(=O)Nc2ccccc2)c(-c2ccccc2)c(-c2ccc(F)cc2)n1CC[C@@H](O)C[C@@H](O)CC(=O)O	nt	nt	?	nt	-18.7	2.8	-2.0	nt
CC(=O)Nc1ccc2c(c1)C(=O)N(c1cccc3ccccc13)C2=O	27.0	i	-16.2	2.7	-17.2	-4.6	-1.2	-15.8
COc1cc(C#Cc2ccc3cc(CCO)oc(=O)c3c2)cc(OC)c1	nt	nt	-119.7	nt	-16.2	3.2	1.1	nt
CC(C)CCNC(=O)NC(=O)COC(=O)/C=C/c1cnc2ccccc2n1	-8.2	i	nt	1.6	-0.1	-3.7	2.5	-6.1
Cc1csc(NC(=O)c2ccc3c(=O)n4c(nc3c2)CCCCC4)n1	-4.5	i	-42.2	14.1	nt	1.8	1.5	-7.0
CSc1ccccc1NC(=O)c1cc(S(=O)(=O)N(C)C)ccc1N1CCCC1	14.4	i	4.2	40.3	-15.7	-0.4	4.0	nt
COCCNC(=O)[C@@H]1CCCN1C(=O)C1CCN(S(=O)(=O)c2ccc(C)cc2)CC1	-9.4	i	-0.3	-4.7	1.4	0.0	-0.2	1.8
O=C1c2ccccc2C(=O)N1Cc1nc(-c2ccncc2)no1	3.0	i	nt	-7.0	-20.2	2.1	2.8	-7.3
CCOC(=O)CCNC(=O)CCc1nnc(CCCc2ccccc2)o1	-2.5	i	0.6	11.3	0.8	0.1	5.7	-0.4
CCc1nnc(NC(=O)c2cccc(S(=O)(=O)N(C)c3ccc(OC)cc3)c2)s1	-9.7	i	14.3	-9.4	nt	4.8	-3.1	3.5
CCCCCCN1C=CC(=C2C(=O)c3ccccc3C2=O)C=C1	?	i	43.5	?	-52.3	-5.2	-4.4	39.9
COc1ccc(-c2nnc(SC(=O)N3c4ccccc4Sc4ccccc43)o2)cc1	-10.4	i	nt	-1.8	-2.5	5.0	-2.8	7.1
CCCCNC(=O)C1(C)CCCCN1C(=O)c1sccc1C (centres undefined)	nt	nt	9.2	nt	-20.1	-2.9	-1.2	nt
COc1ccc(C(C)=O)cc1COC(=O)c1ccc(C)c(S(=O)(=O)N2CCOCC2)c1	nt	nt	-10.5	nt	-9.0	7.7	-1.7	-5.7
C=CCC1(CC=C)CCCN1C(=O)CC1C(=O)NCCN1Cc1ccccc1OC (centres undefined)	6.5	i	18.7	-8.6	nt	-4.5	-2.9	-3.9
CCCCCCCC(=O)N/N=C(/C)c1c(O)cc(C)oc1=O	2.1	i	nt	0.9	-12.2	7.3	3.0	1.6

This is a subset (hit frequency here may not be typical).
